CSC inhib – cancer stem cell inhibition. cancer stem cell-like cells viability, luminescence. 1.1% of 300,000 active. inhibition, % at 7.5 µM. AID 2717;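 active = mean at 75% or more and at least half the replicates too; inconclusive = mean and replicates disagree; tested in HMLE shEcad cells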;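 also: 0% = median of negative and 100% = median of positive control wells; the first replicate is given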
PABP polyA inh – PABP-poly(A) binding inhibition; PABP-poly(A) RNA binding, fluorescence polarization; inhibition, % at 35 µM; 1% of 290,000 active;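 active = 50% or more with normal probe brightness, or confirmed in later tests; inconclusive = above 50% with abnormal brightness, or retests that disagree; inactive = below 50% or failed in later tests; about a fifth of its hits are not listed in these tables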;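 also: calls also rest on retests at 20 µM and on dose response follow-up; controls were probe without protein and protein plus probe with vehicle; some compounds called inactive have numbers as strong as hits; many hits fall short of the cut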
Rce1 inhib – blocks yeast Ras-converting enzyme. Q03530. yeast membranes, quenched prenylated peptide cleavage fluorescence. calls only. 0.27% of 290,000 active. AID 2563;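 active = fall in fluorescence gain of 50% or more versus controls, with final raw signal at or below 3038400; inconclusive = same 50% fall but final raw signal above 3038400; inactive = fall in fluorescence gain under 50%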;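 also: plate controls were neutral control wells for no effect and wells lacking membranes for full effect; tested at 10 µM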
Target sequence (Q03530 whole entry, looked up): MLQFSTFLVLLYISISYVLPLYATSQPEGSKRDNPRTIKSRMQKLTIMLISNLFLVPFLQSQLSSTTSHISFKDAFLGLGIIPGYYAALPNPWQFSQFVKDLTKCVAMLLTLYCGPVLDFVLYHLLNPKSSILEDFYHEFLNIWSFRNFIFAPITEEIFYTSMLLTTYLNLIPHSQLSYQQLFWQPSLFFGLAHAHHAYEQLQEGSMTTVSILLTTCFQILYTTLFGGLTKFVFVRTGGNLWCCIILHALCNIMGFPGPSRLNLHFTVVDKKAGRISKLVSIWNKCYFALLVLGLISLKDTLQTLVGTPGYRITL
Yeast UUG start – modulators of start codon recognition fidelity in yeast; S. cerevisiae UUG-firefly luciferase reporter, luminescence/redox ratio; activity score, % at 18.7 µM; 0.13% of 350,000 active;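 active = replicate mean at a twofold rise or more, about +100% in these data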;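 also: firefly luciferase made from a UUG start codon reports start codon fidelity; reporter light over untreated wells divided by growth signal over untreated wells; some hits fall short of that in this replicate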
eIF4H inh – inhibitors of RNA binding by human eIF4H | Q15056 | eIF4H fluorescence polarization binding assay | inhibition, % at 35 µM | 0.94% of 290,000 active | AID 2012;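 active = 50% or more with normal probe brightness, or confirmed in later tests; inconclusive = above 50% with abnormal brightness, or retests that disagree; inactive = below 50% or failed in later tests; about a fifth of its hits are not listed in these tables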;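 also: calls also rest on retests at 20 µM and on dose response follow-up; 0% = protein and probe with vehicle and 100% = probe without protein; strong numbers were not always called active; many hits fall short of the cut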
MT1-MMP act inh – MT1-MMP (human) activation inhibition; P50281; HT1080 RFP-PRO-GFP cells, GFP/RFP ratio fluorescence, overnight; percent of plate control window, DMSO zero; GFP/RFP ratio change, % at 20 µM; 0.061% of 360,000 active; AID 651647;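 active = GFP/RFP ratio change of at least 30% with cell ATP level not reduced by more than half and red fluorescence within 50% of control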; also: strong numbers were not always called active
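Assay system: HT1080 RFP-PRO-GFP cells | Dosing: 20 µM single dose, 1% DMSO | Incubation: Cells overnight before dosing, compound overnight, 37 °C, 5% CO2 | Evaluation: GFP/RFP fluorescence ratio | Control set: DMSO-only wells and HT1080 RFP-L50D-GFP cell wells as references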
HIV Env fusion – inhibitors of HIV Env-mediated cell fusion; HeLa-JRFL Env/CEM21 cell fusion, luciferase; inhibition, % at 12.3 µM; 1.1% of 360,000 active; AID 651610;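 active = mean replicate inhibition score of at least 50 and every replicate individually at or above 50; inconclusive = only one of the two criteria met; inactive = mean below 50 and not all replicates reaching 50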;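 also: 0% = plate neutral controls and 100% = maraviroc near 300 nM; one replicate is shown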
eIF4H inh retest – also measured in eIF4H inh; calls as there; inhibition, %; compound at 20 µM; confirmation average;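 mean of two retest wells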
PABP polyA inh retest – recorded beside PABP polyA inh, whose call it bears; inhibition, %; compound at 20 µM; confirmation repeats;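 mean of two retest wells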
MT1-MMP act inh RFP – further read-out of MT1-MMP act inh, marked with its call; RFP signal change, %; measured here: RFP expression control read;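 0 = vehicle wells; hits needed this value within 50% of zero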
* hit, by the source's call; i = inactive; u = inconclusive; x = not tested or not shown; & = joins results of further samples; [ ] = dose if it differs, or a comment.

SMILES	CSC inhib	PABP polyA inh	Rce1 inhib	Yeast UUG start	eIF4H inh	MT1-MMP act inh	MT1-MMP act inh RFP	HIV Env fusion	others
CCOC(=O)Cn1c(=O)c2c(nc3n2CCCCN3c2ccc(OCC)cc2)n(C)c1=O	-15	x	x	-10	x	-2	-1	18
CCOC(=O)N1CCN(C(=O)CSc2ccc(-c3ccccc3OC)nn2)CC1	x	6	i	x	-4	5	0	14
COC(=O)C(C(=O)Nc1cccc(Cl)c1C)C1CCCC1 (stereo not drawn)	-10	1	i	x	2	-3	0	6
COc1ccccc1NC(=O)Cc1nc(CCl)cs1	6	-5	i	x	-7	-1	-4	-15
CCc1nc2ccc(C(=O)N(C)Cc3ccccc3)cn2c1N(C)CCCc1ccccc1	x	x	x	-23	x	-4	-6	31
Cc1no[n+]([O-])c1COc1ccccc1/C=C1\NC(=S)NC1=O	-9	-1	i	-5	9	-6	-1	x
CCn1c(SCc2nc(-c3ccccc3)no2)nc2ccccc21	6	5	i	-19	-10	4	-2	14
COCCN(C(=O)COC(=O)c1ccc2c(c1)OCO2)c1c(N)n(Cc2ccccc2)c(=O)[nH]c1=O	x	x	x	-9	x	2	3	4
O=C(c1cn(-c2ccccc2)nc1-c1cccnc1)N1CCCCC1	-11	3	i	-15	-5	0	0	3
COc1ccc(C(=O)NC(=O)Nc2cc(C)ccn2)cc1	12	-5	i	-16	10	1	0	x
Cc1cccc(N2CCN(S(=O)(=O)c3cnc[nH]3)CC2)c1C	-3	-2	i	-8	-8	-1	4	-9
C#CCOCCOCCOCCNc1nc(N2CCN(C(=O)[C@H](CCC(=O)O)n3cc([C@@H](N)[C@H](C)CC)nn3)CC2)nc(N2CCN(C(=O)[C@H](CCC(=O)O)n3cc([C@@H](N)CC(N)=O)nn3)CC2)n1	x	x	x	0	x	4	5	-2
COc1cc(C(=O)NCc2cc3ccccc3n2C)cc(OC)c1OC	-21	-2	i	0	-7	7	-2	11
CN(C(=O)c1cccc(NC(=O)Cc2cccc(NC(=O)C3CCCN(C(=O)C4CCC4)C3)c2)c1)C1CC1 (stereo not drawn)	x	x	x	-4	x	2	-1	-1
O=C1c2ccccc2NC(c2cccc([N+](=O)[O-])c2)N1O (stereo not drawn)	-3	-3	i	19	-3	3	1	7
O=S1(=O)CCOC[C@H](CC2CCCCC2)N1Cc1cccc(C(F)(F)F)c1	46	-4	i	0	2	14	5	11
Cc1c(C(=O)NCc2ccc(F)cc2)sc(=O)n1Cc1ccc(C(=O)c2ccccc2)cc1	x	x	x	-13	x	4	-15	15
O=C(c1ccc(S(=O)(=O)N2CCCCCC2)cc1)N1CCC(CN2C(=O)c3cccc4cccc(c34)C2=O)CC1	-3	-3	i	-11	13	-3	-15	x
CCOc1cccc(/C=C/C(=O)O)c1	35	17	i	-22	0	-1	1	1
Cc1ccc(S(=O)(=O)N2C3C=CC(C3)C2C(=O)O)cc1 (stereo not drawn)	-14	2	i	-12	4	-3	8	-41
CCN1CCN(Cc2nc3c(c(=O)n(C)c(=O)n3C)n2Cc2cccc3ccccc23)CC1	-6	1	i	x	-7	-21	-4	x
CC(=Nc1ccccc1)C1=C(O)CSC1=O	-2	52*	i	-25	34*	-4	2	-10	eIF4H inh retest=106*;PABP polyA inh retest=96*
Cc1cnc(NC2=NCCC2)s1	-7	-12	i	x	4	2	1	-1
O=C(NC(Cc1c[nH]c2ccccc12)C(=O)O)c1ccc(F)cc1 (stereo not drawn)	-3	6	i	x	-6	4	6	2
C[C@@H]1CN([C@@H](C)CO)C(=O)c2cc(Br)cnc2O[C@H]1CN(C)C(=O)Cc1ccccn1	x	x	x	-4&-11	x	-1	2	-10[16.7 µM]

Other results
SMILES	CSC inhib	PABP polyA inh	Rce1 inhib	Yeast UUG start	eIF4H inh	MT1-MMP act inh	MT1-MMP act inh RFP	HIV Env fusion	others
COc1cccc(-c2nnn(CC(=O)N(C3CCCCC3)C3CCS(=O)(=O)C3)n2)c1 (stereo not drawn)	x	x	x	-4	x	4	7	3
CCn1c(C(C)C)n[nH]c1=S	-10	-16	i	-17	-6	-5	2	10
COc1ccc(CC(=O)N2CCc3ccccc32)cc1	4	-1	i	-18	-3	0	0	x
Cc1ccc(C(=O)Oc2oc(-c3ccco3)nc2C=Nc2ccc(Cl)cc2)cc1	-7	-15	i	x	-22	-1	-1	x
Cc1cc(C)cc(OCCNC(=O)c2ccc(Br)cc2)c1	-3	-1	i	-5	-6	2	2	14
CSc1cccc(NC(=O)CN(Cc2ccc(Cl)cc2)S(C)(=O)=O)c1	-7	5	i	-9	2	-6	-3	6
CC(=O)COc1ccc2cc(-c3ccccc3)c(=O)oc2c1	-15	1	i	-10	-5	0	-4	-46
COc1ccc(CN2C(=O)c3cccnc3C2=O)cc1S(=O)(=O)N1CC(C)CC(C)C1 (stereo not drawn)	-9	4	i	3	-11	-9	0	2
O=S1(=O)CC(O)C(NCCO)C1 (stereo not drawn)	-8	-4	i	x	2	2	4	4
CCC(=O)Nc1c2c(nn1-c1ccc(F)cc1)CS(=O)(=O)C2	-11	17	i	-6	5	1	3	-7
O=C(Cn1cc2c(n1)CCCCC2)N1CCc2ccccc21	38	1	i	-26	-5	5	5	-2
Cc1nnc(N2CCC(C(=O)N3CCCCCC3)CC2)c2nn(-c3ccc(Cl)cc3)c(C)c12	4	9	i	-20	-2	-5	-4	3
COC(=O)c1ccc(NC(=O)Nc2ccccc2C)cc1	19	4	i	x	-6	10	-12	0
COC(=O)C1=C(C)N=C2SC(C)C(=O)N2C1/C=C/c1ccccc1OC (stereo not drawn)	3	-7	i	-21	6	-7	-5	x
COc1ccc(C(=O)COC(=O)Cn2c(C)csc2=O)c(OC)c1	-5	x	x	-19	x	3	3	x
Cc1ccc(-n2c3nc(=O)[nH]c(=O)c-3cc3cc([N+](=O)[O-])ccc32)cc1C	84*	-13	x	x	18	11	-4	37
Cc1ccc([C@H]2C[C@H](n3cc(C4CC4)nn3)[C@@H](O)CN2C(=O)c2cccs2)cc1	x	x	x	33	x	2	3	-38
CCOC(=O)C1(C)CCN1C(=O)c1cccc(Cl)c1 (stereo not drawn)	x	x	x	-7	x	-1	0	1
O=C1c2ccccc2C(=O)c2c1ccc1c(=O)n(C3CCCCC3)[nH]c21	12	-13	i	-10	28	-21	0	-110
C=CCn1c(C)c(C(C)=O)c(N2CCN(c3ccccc3)CC2)nc1=S	1	u	i	13	u	-105	7	x
O=C(N/C(=C/c1cccs1)c1nc2ccccc2[nH]1)c1ccccc1	3	-3	i	-21	4	1	5	-58
CCOc1cccc2cc(C(=O)NCc3ccc(OC)cc3)c(=N)oc12	-5	3	i	-18	-7	-6	2	x
Cc1cccc(Nc2nnc(SC/C(O)=C(\C#N)c3nc4ccccc4[nH]3)s2)c1	54	-5	i	-13	36	-25	-1	-19
COc1ccc(Cc2c(-c3ccccc3)nc3c(C)cc(Br)cn23)c(C)c1	x	x	x	17	x	-6	0	3
CCCCc1nc2ccccc2c(NC(=O)CNC(C)(C)C)c1CCC	-7	2	i	-6	0	1	1	-88

Later entries.
SMILES	CSC inhib	PABP polyA inh	Rce1 inhib	Yeast UUG start	eIF4H inh	MT1-MMP act inh	MT1-MMP act inh RFP	HIV Env fusion	others
Cc1cccc(-c2nnc(SCC(=O)NCc3ccc4c(c3)OCO4)n2C)c1	-5	-5	i	-10	-15	0	8	x
CC(C)C[C@H](NC(=O)c1nc[nH]c1C(=O)NCC(=O)OCc1ccccc1)C(=O)OC(C)(C)C	-8	-4	i	2	3	-4	-1	41
O=[N+]([O-])c1cccc(-c2cc(-c3cc(Br)ccc3O)[nH]n2)c1	97*	2	i	-10	23	-1	-19	0
COC(=O)C1C(c2ccc(Cl)cc2)NC(c2ccc(Cl)cc2)C(C(=O)OC)S1(=O)=O (stereo not drawn)	4	16	i	-5	-7	-6	-6	x
CC1=C(C(=O)N(C)C)C(c2ccc(N3CCOCC3)cc2)NC(=O)N1 (stereo not drawn)	-5	11	i	-14	6	-2	4	11
COCCSc1ncnc2c1oc1nc3c(cc12)COC(C)(C)C3	27	6	i	x	-3	4	1	-34
CCOC(=O)Cc1csc(NC(=O)NC2(C(F)(F)F)Oc3cc(Cl)c(Cl)cc3O2)n1	15	17	i	-23	1	-3	-8	x
Cc1cc(C)cc(NC(=O)CN(Cc2ccccc2)S(C)(=O)=O)c1	6	-7	i	-3	-7	4	0	-55
Fc1ccc(-c2csc(-c3ccccn3)n2)cc1F	-4	-6	i	x	0	0	1	-25
Cc1cc(Oc2cc(N)cc([N+](=O)[O-])c2)ccc1Cl	12	13	i	x	0	-2	-3	-13
COc1cccc(C(=O)NCCN2CCOCC2)c1	-5	-5	i	x	-4	-3	3	x
CC(=O)Oc1ccc2nc(/C=C/c3ccc(C=O)cc3)oc(=O)c2c1	0	-12	i	-12	4	2	8	-19
O=C(CCNc1n[nH]c(=O)[nH]c1=O)N/N=C\c1cccc(OCc2ccccc2)c1	-24	4	i	x	-10	5	2	-20
CC(C)CC(=O)N=C1SC2CS(=O)(=O)CC2N1CCc1ccccc1 (stereo not drawn)	-6	-8	i	-21	-9	-13	-12	7
COc1ccc(C2C3=C(CCCC3=O)NC3=C2C(=O)c2ccccc23)cc1 (stereo not drawn)	-16	13	i	-12	-5	8	-2	15
O=C(Nc1ccc(S(=O)(=O)Nc2nccs2)cc1)c1ccc(N2C(=O)c3ccccc3C2=O)cc1	6	u	i	x	u	-5	2	-6
CCOc1ncccc1C(=O)N1CCN(S(=O)(=O)c2cccs2)CC1	x	x	x	-10	x	-2	6	0
O=C(COC(=O)/C=C/c1cccc(Cl)c1)NCCc1ccc(Cl)cc1Cl	-8	3	i	x	-5	4	2	-16
Cc1ccccc1C(=O)N1CCC(C(=O)Nc2ccc(F)cc2)CC1	-5	1	i	-21	1	2	1	-12
Cc1noc(C)c1C(=O)OCC(=O)NC1CCCCC1C (stereo not drawn)	x	x	x	-11	x	6	7	6
COc1cccc(N2CC(O)=C(c3nc4ccccc4c(=O)[nH]3)C2=N)c1	52	1	i	-5	-5	17	-2	x
CCCS(=O)(=O)c1nc(S(=O)(=O)c2ccc(C)cc2)c(N2CCCCC2)s1	x	x	x	-13	x	1	-3	33
CCOc1cccc(OCCNC2CCCC2)c1	4	11	i	x	28	6	0	18
Cc1ccc(C(=O)NCC(C)(C)O)cc1	7	18	i	-16	-8	1	4	-13
COc1ccc(CN2CCC(CO)(Cc3ccccc3)CC2)cc1Cn1cccn1	-9	-10	i	x	-4	3	4	3
COc1ccc(C)cc1N(CC(=O)N/N=C/c1ccccc1C(=O)O)S(=O)(=O)c1ccccc1	-4	-10	i	x	3	-5	-1	14
O=c1c2[nH]c3ccc(F)cc3c2ncn1CCCN1CCOCC1	21	-6	i	6	-1	4	-2	x
C[C@@H]1CCCCO[C@@H](CN(C)C(=O)c2ccccc2)[C@@H](C)CN([C@H](C)CO)C(=O)c2cc(N(C)C)ccc2O1	x	x	x	-10&-4	x	2	4	25&-18[16.7 µM]
Cc1ccc(C)c(NC(=O)CCn2nc(C)cc2C)c1	-4	3	i	3	0	0	4	x

By substructure: those above with a furan ring, fused or not.
SMILES	CSC inhib	PABP polyA inh	Rce1 inhib	Yeast UUG start	eIF4H inh	MT1-MMP act inh	MT1-MMP act inh RFP	HIV Env fusion	others
Cc1ccc(C(=O)Oc2oc(-c3ccco3)nc2C=Nc2ccc(Cl)cc2)cc1	-7	-15	i	x	-22	-1	-1	x
COCCSc1ncnc2c1oc1nc3c(cc12)COC(C)(C)C3	27	6	i	x	-3	4	1	-34

Compound activity (PubChem)

An excerpt; count on the stated rates, not on these rows.
